Vif-APOBEC3F blk – Vif-A3F binding inhibition; HeLa A3F-eYFP + Vif (tagged APOBEC3F with the HIV-1 protein that degrades it), YFP fluorescence increase; 390,000 compounds, 0.2% hits; Potency, µM (doses to about 46.1 µM), inactives show at the highest dose activity, negative = active; also: potency is read from the fitted curve at half-maximal effect; % of control where 0% means no effect; nearly all actives have a fitted effect of over 65% in size
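Fluorescence increase (Ex 488/Em 500-530) after overnight compound treatment at 37 deg C flags inhibition of Vif-driven A3F-eYFP loss in stable HeLa A3F-eYFP/Vif cells seeded overnight beforehand.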
LDHA inh – blocks human lactate dehydrogenase A | activity change, % (values are at about 110 or 230 µM) | 480,000 compounds, 0.15% hits | purified LDHA, NADH/diaphorase-resazurin fluorescence; hits give low values | P00338; in the data active = activity change below about -30%; inconclusive = mostly about -25% to -30%;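 also: plate controls were DMSO wells for no effect and wells without enzyme for full effect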
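LDH5 2 nM; NADH 0.06 mM, pyruvate 0.2 mM; 200 mM Tris pH 7.4, EDTA, Tween-20; 5 min RT. Detection: diaphorase 0.133 mg/mL + resazurin 37 µM, fluorescence ex540/em590 at 0 and 20 min; normalized to enzyme-free and DMSO wells.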
Vif-APOBEC3G blk – Vif-A3G binding inhibition; Potency, µM (top dose mostly 46.1 µM), for inactives: at the highest dose activity, negative = active, actives largely listed as inhibitors; 410,000 compounds, 0.076% hits; Q9HC16; HeLa A3G-eYFP + Vif (tagged APOBEC3G with the HIV-1 protein that degrades it), YFP fluorescence, overnight;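 also: potency is read from the fitted curve at half-maximal effect; % is scaled to controls: 0 for no effect and ±100 for the full control effect; nearly all actives have a fitted effect of over 60% in size; hits raise eYFP signal because A3G escapes Vif-driven loss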
Target sequence (Q9HC16 whole entry, looked up): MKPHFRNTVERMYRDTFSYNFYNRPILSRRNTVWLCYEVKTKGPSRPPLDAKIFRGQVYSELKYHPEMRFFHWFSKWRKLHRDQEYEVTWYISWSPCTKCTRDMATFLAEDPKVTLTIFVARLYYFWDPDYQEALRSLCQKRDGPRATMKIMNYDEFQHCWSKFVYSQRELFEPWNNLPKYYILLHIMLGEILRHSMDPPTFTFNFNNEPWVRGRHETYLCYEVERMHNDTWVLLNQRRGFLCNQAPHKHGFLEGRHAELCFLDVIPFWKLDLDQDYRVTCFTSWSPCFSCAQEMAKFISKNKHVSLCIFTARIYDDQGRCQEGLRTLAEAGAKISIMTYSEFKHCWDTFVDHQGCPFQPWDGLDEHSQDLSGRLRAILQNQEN
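HeLa cells stably expressing Vif and C-terminally eYFP-tagged A3G, seeded overnight at 37 deg C, then exposed to compound by pintool overnight at 37 deg C. Rise in yellow fluorescence (Ex 488/Em 500-530, Acumen) marks blocked Vif-driven A3G degradation.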
D1 agonist – agonists of human D1 dopamine receptor; HEK293 T-REx D1 cells, calcium flux, agonist mode; activation, % at 2 µM; 360,000 compounds, 1% hits; in the data active = activation above about 30%; also: 0% is about no effect
Target sequence (P21728 whole entry, looked up): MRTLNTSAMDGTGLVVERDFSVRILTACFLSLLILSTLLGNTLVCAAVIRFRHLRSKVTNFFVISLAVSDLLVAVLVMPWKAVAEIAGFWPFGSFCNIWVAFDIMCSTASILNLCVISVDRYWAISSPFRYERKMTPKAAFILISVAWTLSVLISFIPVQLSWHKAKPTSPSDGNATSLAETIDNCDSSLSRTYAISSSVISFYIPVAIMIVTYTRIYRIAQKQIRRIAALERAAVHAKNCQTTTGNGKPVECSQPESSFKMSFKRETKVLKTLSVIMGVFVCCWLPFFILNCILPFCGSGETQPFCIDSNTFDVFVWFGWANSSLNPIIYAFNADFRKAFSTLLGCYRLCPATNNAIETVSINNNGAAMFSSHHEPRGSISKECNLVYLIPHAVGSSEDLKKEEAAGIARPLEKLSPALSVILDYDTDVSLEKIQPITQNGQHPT
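Inducible HEK293 T-REx D1 cells, force-coupled to calcium signalling, were plated at 4000 cells/well with tetracycline and held overnight at 30 C. After no-wash calcium dye loading, compound-evoked calcium rise over 180 s flagged agonists.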
D1 PAM – potentiators of human D1 dopamine receptor | P21728 | HEK293 TREx D1 cells, calcium flux, dopamine EC20 potentiation | potentiation, % at 10 µM | 360,000 compounds, 0.036% hits | AID 504651; in the data active = potentiation above about 30%; also: 0% is about no effect
D2 potentiator – D2 dopamine receptor (human) potentiation; P14416; HEK293 T-REx D2, calcium flux, EC20 dopamine potentiation; potentiation, % at 10 µM; 340,000 compounds, 0.34% hits; AID 485347;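 active = potentiation over 3 SD above the plate norm, cut at about 30% in these data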; also: 0% is about no effect
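Potentiation of an EC20 dopamine calcium response measured kinetically over 180 s, after a preceding 180 s compound-only read flagging agonists. Cells: inducible Hek293 Trex D2 line, 4000/well, cultured overnight at 30 C before dye loading.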
D1 antagonist – blocks dopamine activation of the human D1 receptor; P21728; HEK293 TREx D1 cells, calcium flux, dopamine EC80; hits give low values; activity change, negative = inhibition, % at 10 µM; 360,000 compounds, 3.2% hits; AID 504652; in the data active = activity change below about -30%; also: % is scaled to controls: 0 for no effect and ±100 for the full control effect
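Cells carrying a force-coupled, tetracycline-inducible human D1 receptor report calcium flux. Each well gets a 10 s baseline, compound with 180 s monitoring, then an EC80 dopamine stimulus with a second 180 s kinetic read.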
Glioma ERSR ind – ER stress response induction in glioma; 420,000 compounds, 0.02% hits; Potency, µM, for the others: top-dose activation, actives largely listed as activators; U87-MG GRP78 promoter luciferase reporter, 16 h; also: potency is read from the fitted curve at half-maximal effect; series mostly up to about 76 µM; % of control where 0% means no effect; nearly all actives have a fitted effect of over 35% in size
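ERSR induction read as luciferase luminescence (Bright-Glo, 10 min at room temperature) in stably transfected human U87-MG glioma cells exposed to compounds for 16 h, using GRP78 as sensor.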
Active calls of the source: *; ? = inconclusive; / = not tested or not shown; ! = not active in a repeat. Unless noted, calls follow the shape of the dose curve; as a rule, active = well fitted curve in the direction sought with a large enough effect; inconclusive = small, poorly fitted or top-dose-only effect, or another doubt; inactive = no such curve, though single readings can be large; an effect the other way counts as inactive or inconclusive.

SMILES,Vif-APOBEC3F blk,LDHA inh,Vif-APOBEC3G blk,D1 agonist,D1 PAM,D2 potentiator,D1 antagonist,Glioma ERSR ind
CCCCOc1ccc(C(O)C(CN2CCOCC2)c2ccccc2)cc1 (centres undefined),-0.4%,-2.8,-2.2%,1.5,-0.3,0.7,3.3,-3.2%
CCOc1ccccc1C(=O)Nc1ccc(S(=O)(=O)Nc2onc(C)c2C)cc1,0.2%,?,-0.2%,-1.5,-0.7,0.2,3.1,-3.4%
CCc1cc(-c2n[nH]c(C)c2-c2nc(C)cs2)c(O)cc1OC,7.9%,-0.7,-4.8%,3.8,-1.1,-11.5,-0.1,-0.1%
Cc1ccc2ncc(C(=O)NCCc3ccc(S(N)(=O)=O)cc3)c(=O)n2c1,?,-1.9,1.8%,0.6,-3.9,17.3,-1.2,-3.4%
Cc1csc2nc(COC(=O)CNC(=O)c3ccc(F)cc3)cc(=O)n12,1.9%,1.3,-0.6%,1.4,-4.8,-7.1,6.4,-0.6%
O=C(c1cc2cc(Br)ccc2[nH]1)N1CCc2ccccc21,23.8%,-8.7,-8.2%,1.4,-7.4,4.1,3.4,7.7%
O=C(NC1CCCCC1)C1CCN(C(=O)c2ccccc2Cl)CC1,-2.7%,-8.8,-4.6%,-1.3,4.0,/,-8.2,-2.0%
CCCCCC(=O)Nc1cccc(S(=O)(=O)NC2=NCCC2)c1,-12.6%,-3.2,-1.1%,-0.5,-2.8,/,9.0,0.8%
Cc1sc2ncn(CC(=O)NCCCC(=O)N3CCCCC3)c(=O)c2c1C,-5.7%,-6.7,-0.8%,0.3,-4.4,/,-5.9,-1.3%
CCc1c(C)[nH]c2ccc(OC)cc2c1=S,9.7%,7.2,-0.4%,1.6,-8.6,5.0,-7.4,-2.9%

Given as labelled records: two of the compounds above
O=C(c1cc2cc(Br)ccc2[nH]1)N1CCc2ccccc21
  Vif-APOBEC3F blk = 23.8%
  LDHA inh = -8.7
  Vif-APOBEC3G blk = -8.2%
  D1 agonist = 1.4
  D1 PAM = -7.4
  D2 potentiator = 4.1
  D1 antagonist = 3.4
  Glioma ERSR ind = 7.7%
O=C(NC1CCCCC1)C1CCN(C(=O)c2ccccc2Cl)CC1
  Vif-APOBEC3F blk = -2.7%
  LDHA inh = -8.8
  Vif-APOBEC3G blk = -4.6%
  D1 agonist = -1.3
  D1 PAM = 4.0
  D2 potentiator = /
  D1 antagonist = -8.2
  Glioma ERSR ind = -2.0%

(further entries)
SMILES,Vif-APOBEC3F blk,LDHA inh,Vif-APOBEC3G blk,D1 agonist,D1 PAM,D2 potentiator,D1 antagonist,Glioma ERSR ind
CCOc1ccc2oc(=O)cc(CN3CCN(C(=O)c4cccc(Cl)c4)CC3)c2c1,1.0%,6.7,5.4%,0.1,-1.9,3.4,-1.7,-1.6%
COc1ccccc1CC(=O)Nc1ccc([N+](=O)[O-])cc1OC,1.3%,-5.7,-3.8%,-0.5,-0.2,0.5,5.6,-4.6%
Cc1sc2ncn(CC(=O)NCCCC(=O)N3CCN(c4ccccn4)CC3)c(=O)c2c1C,/,-3.0,-5.1%,2.1,1.4,3.5,1.4,-0.5%
Cc1ccc(OCC(=O)Nc2ccc(OCc3cc(=O)n4c(C)csc4n3)cc2)cc1C,-8.1%,-8.7,-3.9%,5.6,-3.6,2.8,2.8,-0.6%
Cc1ccc(CNC(=O)Cn2cc(C(=O)c3ccc(Cl)cc3)c(=O)c3ccc(C)nc32)cc1,12.6µM*,-2.4,-16.5%,0.9,-2.9,-7.2,-3.1,-4.1%
CCOC(=O)Cn1c(=S)[nH]c2c(oc3ccc(Cl)cc32)c1=O,0.2%,-8.2,0.4%,2.7,-4.2,-1.6,1.4,4.8%
CCc1ccccc1NC(=O)CN1CCC(NC(=O)COC)CC1,-1.2%,-10.8,-0.3%,0.8,2.5,2.7,-1.6,-0.7%
CCCC(=O)Nc1cc(-c2nnc3c4ccccc4c(C)nn23)ccc1C,0.3%,-14.1,2.1%,-0.8,-1.7,5.2,0.8,-1.9%
COc1ccc(-n2ccnc(NCc3ccc(C)cc3)c2=O)cc1OC,-1.7%,2.6,5.3%,0.3,-4.1,10.0,-16.7,2.1%
CCOC(=O)C1CCCN(C(=S)NC(=O)/C=C/c2ccc(F)cc2)C1 (centres undefined),?,-11.1,1.1%,1.2,-2.3,-4.8,-3.5,-2.5%

(more compounds)
Value order: Vif-APOBEC3F blk	LDHA inh	Vif-APOBEC3G blk	D1 agonist	D1 PAM	D2 potentiator	D1 antagonist	Glioma ERSR ind
CCn1c(C)cc(=S)c2ccccc21
  2.7%	15.4	-2.2%	3.7	-0.3	-11.5	3.9	-3.9%
CC(C)Oc1ccc(-c2nc(NCC3CCCO3)c3ccccc3n2)cc1 (centres undefined)
  1.7%	-8.9	-10.2%	2.7	-8.7	6.8	-2.8	-4.3%
Cc1c(C#N)c(N)nc2c3c(sc12)NC(=O)CC3c1ccccc1 (centres undefined)
  7.9%	-31.2*!	1.1%	1.0	-4.2	-0.1	16.3	-1.0%
O=C(CSc1nnc2ccc(-c3ccccc3)nn12)NCC1CCCO1 (centres undefined)
  1.3%	-6.1	-4.3%	3.0	0.5	-0.8	-4.5	-0.8%
Cc1ccc(C(=O)C2=C(O)C(=O)N(c3ncccn3)C2c2ccc(F)cc2)o1 (centres undefined)
  1.1%	4.4	0.4%	0.4	3.6	-8.7	-8.8	-4.5%
Cc1ccc(Cc2nc3ccccc3nc2SCC(=O)Nc2ccc3c(c2)OCO3)cc1
  -20.4%	-7.7	1.2%	0.3	-0.8	-7.7	-11.1	-2.2%
COc1ccc(C(=O)Nc2nnc(-c3ccccc3)s2)cc1
  -18.2%	-7.6	-1.5%	4.8	-2.8	1.6	1.9	-1.1%
CCOC(=O)CNC(=O)CSc1nnc(COc2ccc(Cl)cc2)n1CC
  0.6%	-0.5	0.7%	-0.1	-2.8	-4.7	0.7	-0.8%
CCOC(=O)N1CCN(C(=O)COc2ccc3ccccc3c2Br)CC1
  2.9%	2.2	1.7%	6.0	-0.5	-5.5	13.7	-2.8%
O=C(NCCc1ccccc1)c1cc(-c2ccccc2)nc2n[nH]c(-c3ccccc3)c12
  -10.2%	-19.0	-22.1%	1.4	2.8	6.2	-3.4	-5.1%
CCOC(=O)N1CCN(C(=O)Nc2ccc3nc(C)c(C)nc3c2)CC1
  -9.8%	9.2	0.2%	3.0	-0.6	-2.1	-7.9	3.6%

Structural class: the entries above containing a halogen
Value order: Vif-APOBEC3F blk	LDHA inh	Vif-APOBEC3G blk	D1 agonist	D1 PAM	D2 potentiator	D1 antagonist	Glioma ERSR ind
Cc1csc2nc(COC(=O)CNC(=O)c3ccc(F)cc3)cc(=O)n12
  1.9%	1.3	-0.6%	1.4	-4.8	-7.1	6.4	-0.6%
O=C(c1cc2cc(Br)ccc2[nH]1)N1CCc2ccccc21
  23.8%	-8.7	-8.2%	1.4	-7.4	4.1	3.4	7.7%
O=C(NC1CCCCC1)C1CCN(C(=O)c2ccccc2Cl)CC1
  -2.7%	-8.8	-4.6%	-1.3	4.0	/	-8.2	-2.0%
CCOc1ccc2oc(=O)cc(CN3CCN(C(=O)c4cccc(Cl)c4)CC3)c2c1
  1.0%	6.7	5.4%	0.1	-1.9	3.4	-1.7	-1.6%
Cc1ccc(CNC(=O)Cn2cc(C(=O)c3ccc(Cl)cc3)c(=O)c3ccc(C)nc32)cc1
  12.6µM*	-2.4	-16.5%	0.9	-2.9	-7.2	-3.1	-4.1%
CCOC(=O)Cn1c(=S)[nH]c2c(oc3ccc(Cl)cc32)c1=O
  0.2%	-8.2	0.4%	2.7	-4.2	-1.6	1.4	4.8%
CCOC(=O)C1CCCN(C(=S)NC(=O)/C=C/c2ccc(F)cc2)C1 (centres undefined)
  ?	-11.1	1.1%	1.2	-2.3	-4.8	-3.5	-2.5%
Cc1ccc(C(=O)C2=C(O)C(=O)N(c3ncccn3)C2c2ccc(F)cc2)o1 (centres undefined)
  1.1%	4.4	0.4%	0.4	3.6	-8.7	-8.8	-4.5%
CCOC(=O)CNC(=O)CSc1nnc(COc2ccc(Cl)cc2)n1CC
  0.6%	-0.5	0.7%	-0.1	-2.8	-4.7	0.7	-0.8%
CCOC(=O)N1CCN(C(=O)COc2ccc3ccccc3c2Br)CC1
  2.9%	2.2	1.7%	6.0	-0.5	-5.5	13.7	-2.8%

Source: PubChem (National Center for Advancing Translational Sciences (NCATS))

The list is partial; count on the stated rates, not on these rows.
